TRPML1 agonist: qHTS for Agonists of the Human Mucolipin Transient Receptor Potential 1 (TRPML1). Mucolipin-1 (Homo sapiens), Q9GZU1. TRPML1-expressing cells, Ca2+ dye fluorescence, FDSS; host cell line not named in the record; reference of the full effect not given here. activation, % (test concentration not listed). hit rate 0.12% among 410,000. AID 624414, 2012; in the data active = activation above about 50%; inconclusive = about 30% to 50%; inactive = below about 30%; note: 0% is about no effect; the text of the record puts the active cut at 80%
Target sequence (Q9GZU1 whole entry, looked up): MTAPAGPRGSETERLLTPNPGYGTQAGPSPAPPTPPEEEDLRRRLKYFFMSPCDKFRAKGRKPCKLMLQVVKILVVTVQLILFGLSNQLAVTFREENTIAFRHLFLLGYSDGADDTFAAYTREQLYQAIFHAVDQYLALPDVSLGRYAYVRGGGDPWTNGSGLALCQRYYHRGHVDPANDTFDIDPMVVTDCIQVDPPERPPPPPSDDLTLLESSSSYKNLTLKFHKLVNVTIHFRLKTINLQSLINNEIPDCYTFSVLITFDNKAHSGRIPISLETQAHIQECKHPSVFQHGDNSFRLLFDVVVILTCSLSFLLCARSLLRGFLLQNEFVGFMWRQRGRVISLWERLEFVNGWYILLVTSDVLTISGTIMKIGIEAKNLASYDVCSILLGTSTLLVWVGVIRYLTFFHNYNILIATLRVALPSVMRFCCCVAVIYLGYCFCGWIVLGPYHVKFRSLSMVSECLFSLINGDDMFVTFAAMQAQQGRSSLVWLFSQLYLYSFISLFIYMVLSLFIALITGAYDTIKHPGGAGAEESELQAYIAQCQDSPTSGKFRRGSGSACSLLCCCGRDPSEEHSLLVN
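Agonist activity was taken from a 110 s kinetic Ca2+ dye read on the FDSS after pinning compounds onto TRPML1-DL cells. The cells were seeded at 1,500/well with Tet inducer, incubated about 16 h, then dye-loaded at room temperature.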
D2 PAM: Beta-Arrestin HTS for Positive Allosteric Modulators of the Human D2 Dopamine Receptor: Potentiators | hit rate 0.23% among 360,000 | DiscoveRx D2 beta-arrestin cells, luminescence, 90 min; 100% = 57 uM dopamine signal | potentiation, % (test concentration not listed); active = potentiation of 50% or more; inconclusive = 30% to 50%; inactive = 30% or less;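 note: compound concentration not given in the record; tested on top of an EC20 dose of dopamine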
Target sequence (P14416 whole entry, looked up): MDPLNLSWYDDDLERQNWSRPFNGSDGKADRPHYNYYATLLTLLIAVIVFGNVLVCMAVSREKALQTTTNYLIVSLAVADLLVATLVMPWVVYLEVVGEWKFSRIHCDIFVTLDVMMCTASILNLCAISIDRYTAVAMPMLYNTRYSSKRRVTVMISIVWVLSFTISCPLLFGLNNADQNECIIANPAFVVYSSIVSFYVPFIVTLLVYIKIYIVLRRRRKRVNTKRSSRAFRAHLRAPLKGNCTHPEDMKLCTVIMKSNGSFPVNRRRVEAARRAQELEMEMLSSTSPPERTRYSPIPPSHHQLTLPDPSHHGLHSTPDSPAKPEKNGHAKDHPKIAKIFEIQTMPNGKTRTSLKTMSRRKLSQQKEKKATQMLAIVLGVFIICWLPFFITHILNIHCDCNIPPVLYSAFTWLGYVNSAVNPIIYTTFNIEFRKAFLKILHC
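PathHunter D2 cells, attached overnight at 37 deg C, received compound in DMSO plus dopamine at EC20 (50 nM final) for 90 min at 37 deg C. Beta-arrestin recruitment was read as luminescence after 1 h with detection reagent at ambient temperature.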
PINK1 expr mod: A Quantitative High throughput Screen to Identify Chemical Modulators of PINK1 Expression | PINK1 immunofluorescence, high-content cytometry, 24 h | Potency, µM (highest dose often 76.6 µM), inactives show top-dose activation (PINK1 increase), actives largely listed as activators | hit rate 0.2% among 410,000; active = well fitted activation curve with a large enough effect; inconclusive = small, poorly fitted or top-dose-only effect; inactive = flat fitted curve, though single readings scatter; cell line not stated here;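 note: potency is the fitted concentration of half-maximal effect; % of control where 0% means no effect; nearly all actives have a fitted effect of over 65% in size; a mitochondrial uncoupler was the plate control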
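Measures PINK1 amount and localization on or inside mitochondria by immunofluorescence. Stable cells get compounds at 5 concentrations for 24 hours before fixation and staining; CCCP controls included.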
D2 ag: Beta-Arrestin HTS for Positive Allosteric Modulators of the Human D2 Dopamine Receptor: Agonists; D(2) dopamine receptor (Homo sapiens), P14416; DiscoveRx PathHunter D2 beta-arrestin, luminescence, 90 min; 100% = 57 uM dopamine signal; activation, % (concentration not given with the values); hit rate 0.084% among 360,000; in the data active = activation above about 40%; inconclusive = about 15% to 40%; inactive = below about 15%; note: compound concentration not given in the record; the text of the record calls up to 30% inactive
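DiscoveRx PathHunter D2 beta-arrestin cells (2,100/well) attached overnight, then compound-stimulated 90 min at 37 C in HBSS/10 mM HEPES/0.1% Tween-20 buffer; beta-galactosidase complementation read by luminescence after 1 h at ambient temperature. Dopamine 57 uM final (EC100) as control.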
Six1-Eya2 blk: qHTS Assay for Inhibitors of the Six1/Eya2 Interaction; Homeobox protein SIX1 (Homo sapiens) + Protein phosphatase EYA2 (Homo sapiens), …; AlphaScreen GST-Six1/His-Eya2 binding, biochemical; stronger effect = lower value; control for the full effect not named in the record; activity change, % (no concentration beside the values); hit rate 0.56% among 360,000; AID 651725, 2012; in the data active = activity change below about -65%; inconclusive = about -30% to -65%; inactive = above about -30%; note: % is set by controls: 0 for no effect and ±100 for the full control effect; compound concentration not given in the record
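Homogeneous AlphaScreen proximity assay pairing GST-Six1 with His-tagged Eya2 (added as 5X mix: 250 nM and 500 nM) in 50 mM Tris pH 8.0, 300 mM NaCl, 1 mM TCEP. Glutathione donor and nickel acceptor beads; 1 h, 37 °C, dark.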
CtBP-E1A blk: qHTS Assay for Inhibitors of the CtBP/E1A Interaction. CtBP / adenovirus E1A interaction (AlphaScreen). AlphaScreen GST-E1A/His-CtBP binding, 1536-well; stronger effect = lower value; control for the full effect not named in the record. activity change, % (no concentration beside the values). hit rate 0.49% among 340,000; in the data active means activity change below about -65%; inconclusive means about -30% to -65%; inactive means above about -30%; note: % is set by controls: 0 for no effect and ±100 for the full control effect; compound concentration not given in the record
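Protein mix (5X: 125 nM each GST-E1A, His-CtBP) was incubated with pinned compound 2 h at 37 deg C in dark, in 50 mM Tris pH 8.0 buffer with 300 mM NaCl. Glutathione donor and nickel acceptor beads followed; AlphaScreen signal read after 1 h.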
* = called active by the depositor; u = inconclusive; x = no result given; & = joins results of further samples; [ ] = dose if it differs, or a comment. Not a hit list (roughly 1.3% active in at least one column).

SMILES	TRPML1 agonist	D2 PAM	PINK1 expr mod	D2 ag	Six1-Eya2 blk	CtBP-E1A blk
c1ccc(N2CCN(c3ccc4nncn4n3)CC2)nc1	-0.9	-9	0.3%	-2.6	-20	-8
COC(=O)c1sccc1Oc1c(Cl)cccc1[N+](=O)[O-]	1.3	-6	3.4%	0.2	-1	-7
Cc1ccc(NS(=O)(=O)c2cc([N+](=O)[O-])ccc2NNC(=S)Nc2cc(C)ccc2C)c(C)c1	-0.6	-37	u	-11	u	12
CCN(CC)c1ccc(C2C(C(=O)OC)=C(C)NC(C)=C2C(=O)OC)cc1	1.8	-10	7.0%	0.6	-5	-4
COc1cc(C(=O)NNC(=O)Cc2cccs2)cc(OC)c1OC	-0.8	4	0.9%	0.4	-4	x
CCc1nc(SCC(=O)N2CCOCC2)c2c(=O)n(C)c(=O)n(C)c2n1	0.0	-6	2.0%	-3.4	-2	3
COc1ccccc1CNC(=O)CCNS(=O)(=O)c1ccc2c(c1)oc(=O)n2C	-0.7&-0.5	-6	-0.8%&-0.3%	-0.1	-1	5
O=C(O)c1ccccc1OC(=O)C12CC3CC(CC(C3)C1)C2	0.4	-4	-0.2%	-3.1	3	25
Cc1ccc(-n2nc3c(=O)n(CCCC(=O)NCc4ccc(C)o4)nc(C)c3c2C)cc1	1.9	-2	0.1%	2.3	-8	-11
Cc1ccc(OCC(=O)Nc2ccc3c(c2)nc(CCN2CCCC2)n3C)cc1	-0.4	-39	0.7%	-0.2	-5	6
Cc1cc(C)cc(NC(=O)CN2CCC(NC(=O)Cc3ccccc3)CC2)c1	-0.1	-11	x	0.4	-2	5
CC1=C(C)N(C)[C@H](c2ccccc2Br)[C@H](O)C1=O	-0.6	x	0.1%	-4.2	-1	3
CCCN1CCN(C(=O)Cn2nc(C)n3c(cc4sccc43)c2=O)CC1	-0.7	-8	0.1%	-1.3	0	3
Cc1ccc(-n2nnc3c(=O)n(Cc4ccccn4)cnc32)cc1C	1.1	5	16%	-5.7	-4	4
CC1(C)CC(=O)C2=C(C1)N(c1ccccc1C#N)C(N)=C(C#N)C2c1cccs1 (configuration not stated)	2.3	-11	-0.7%	-1.5	-13	-14
CCCCN(C)C(=O)CSc1nc(NCc2ccc(OC)cc2)c2ccccc2n1	0.6	-12	u	-4.7	-5	5
O=C(CSc1nnc(CNC(=O)c2ccco2)o1)Nc1ccc(F)cc1F	-0.9	-11	0.9%	-4.7	5	-1
O=C(NCCCN1CCOCC1)c1c(-c2ccccc2)oc2c1C(OCCCCCO)CCC2 (configuration not stated)	-0.8	x	-0.4%	x	8	8
N#C/C(=C\c1ccc(-c2ccccc2)cc1)c1nc(-c2ccco2)cs1	0.0	-16	5.3%	-1.6	-8	-1
O=C(N/N=C/c1ccc[nH]1)c1cc(-c2ccc(Cl)cc2)nc2ccccc12	-1.0	-2	16%	-2.2	-30	-9
Nc1c(-c2ccccc2)c(CSc2nc3ccccc3[nH]2)nn1-c1ccc(Cl)cc1	1.0	-18	-1.6%	1.4	-12	-4
CCOCCCn1c(=S)[nH]c2cc(C(=O)N3CCN(c4ccccc4)CC3)ccc2c1=O	0.9	-8	4.3%	12	1	11
Cc1ccc(S(=O)(=O)N2C[C@@H](C)[C@]3(C2)[C@H](O)[C@H](OC(=O)NC2CCCC2)C[C@H]2C(=O)N(c4ccccc4)C(=O)[C@H]23)cc1	x	x	1.9%	-1.4	-3	4
Cc1ccc(S(=O)(=O)NCCN2CCOCC2)c(C)c1	1.8	-4	-0.9%	7.3	6	0
O=C(CSc1ccc(-c2cccc([N+](=O)[O-])c2)nn1)N1CCCCC1	0.0	-5	-0.2%	-3.0	-3	-6
COc1ccc(C)cc1-n1nnnc1SCC1CCCCO1 (configuration not stated)	0.6	-15	26%[38.3 µM]	-2.4	8	-8
O=C(NC(CSC(=O)c1ccccc1)C(=O)O)OCc1ccccc1 (configuration not stated)	0.8	-1	0.1%	0.0	10	3
CCCCCSc1nc(N2CCOCC2)c2c(c1C#N)CC(C)(C)OC2	-0.6	-5	2.9%	-2.9	-8	-1
CCOC(=O)c1nnn(-c2nonc2-n2cccc2)c1CN1CCC(C)CC1	3.9	20	1.0%	1.9	6	8
OC(COc1ccc2ccccc2c1)CN1CCCC1 (configuration not stated)	-0.1	-11	1.5%[38.3 µM]	0.4	-15	-12
COc1ccc(OCCSc2nnc3sc4ccccc4n23)cc1	1.8	-2	x	-0.3	-18	1
O=C(O)CCCN1C(=O)c2ccc(Oc3cccc([N+](=O)[O-])c3)cc2C1=O	-0.3	8	0.9%	-0.6	1	-6
COc1ccc(C)cc1NC(=O)c1ccc([N+](=O)[O-])cc1[N+](=O)[O-]	0.3	5	1.2%	5.0	-8	2
O=C(c1ccc(Cn2c(=O)[nH]c3ccccc3c2=O)cc1)N1CCN(c2ccccc2)CC1	1.1	4	-1.4%	2.6	-2	-8
COc1cc(NC(=O)COC(=O)CCc2cc(OC)c(OC)c(OC)c2)cc(OC)c1	0.5	0	0.9%	1.0	u	4
CCCCc1nc(NCC2CCCO2)c(C#N)c2c1COC(C)(C)C2 (configuration not stated)	0.6	14	2.7%	-1.6	-1	3
Cc1ccc(C2C3=C(CCCC3=O)N=C3c4ccccc4C(=O)C32)cc1 (configuration not stated)	2.6	-26	1.1%	-5.4	u	u
CCN1CCN(C(=O)CN(c2ccc(F)cc2)S(=O)(=O)c2ccc(OC)c(OC)c2)CC1	0.4	-20	0.8%	2.3	0	3
CSc1ccc(Cn2c(C)c(C(=O)NCc3ccc(Cl)c(Cl)c3)sc2=O)cc1	0.4	-4	-0.3%	8.9	-5	-2
CC(Cc1ccsc1)NC(=O)CCc1nnc(COc2ccccc2)o1 (configuration not stated)	0.8	-5	-1.6%	-2.9	7	3

As entered above:
Reading of Cc1cc(C)cc(NC(=O)CN2CCC(NC(=O)Cc3ccccc3)CC2)c1 in Six1-Eya2 blk: -2
Reading of O=C(CSc1nnc(CNC(=O)c2ccco2)o1)Nc1ccc(F)cc1F in PINK1 expr mod: 0.9%
Reading of O=C(c1ccc(Cn2c(=O)[nH]c3ccccc3c2=O)cc1)N1CCN(c2ccccc2)CC1 in TRPML1 agonist: 1.1

The main list resumes, repeating the two entries before the break.
SMILES	TRPML1 agonist	D2 PAM	PINK1 expr mod	D2 ag	Six1-Eya2 blk	CtBP-E1A blk
CSc1ccc(Cn2c(C)c(C(=O)NCc3ccc(Cl)c(Cl)c3)sc2=O)cc1	0.4	-4	-0.3%	8.9	-5	-2
CC(Cc1ccsc1)NC(=O)CCc1nnc(COc2ccccc2)o1 (configuration not stated)	0.8	-5	-1.6%	-2.9	7	3
CCN1C(=O)CCCc2ccccc21	0.1	-4	0.6%	1.2	2	13
O=C(CSc1ccc2nnc(-c3ccccc3)n2n1)NCc1ccc2c(c1)OCO2	-0.8	-4	2.4%	-1.9	0	5
Cc1c(NC(=O)c2cc3nc(-c4ccc(Br)cc4)cc(C(F)(F)F)n3n2)c(=O)n(-c2ccccc2)n1C	-0.6	-6	4.0%	-4.7	-1	-1
CC1(C)C(=O)Nc2ccccc2N1C(=O)COC(=O)Cc1ccc(Cl)c(Cl)c1	-1.4	-15	1.4%	-1.1	3	x
Cc1ccc(C)c(OCc2ccc(C(=O)Nc3ccc([N+](=O)[O-])cn3)o2)c1	-0.6	8	8.4%	3.6	-7	x
CC(=O)Nc1cc2c(c([N+](=O)[O-])c1C)C(C)(C)CC2(C)C	-0.3	-3	1.8%	-0.9	4	-14
CCN(Cc1ccncc1)C(=S)Nc1ccccc1C	0.0	0	-0.8%	-0.5	4	1
O=C(O)C1C2C=CC(C2)C1C(=O)N1CCN(C/C=C/c2ccccc2)CC1 (configuration not stated)	-0.7	-16	0.5%	0.6	5	6
CCN1CN=C(NS(=O)(=O)c2ccc(C)cc2)NC1	0.8	-8	u	-4.5	6	2
CC(C)c1cccc(-c2ccc3c(c2)S(=O)(=O)c2cccc(C(=O)NC4CCCC4)c2C3=O)c1	-0.8	-2	-0.9%	-0.4	3	-6
O=C(OCCN1CCN(c2ncc(C(F)(F)F)cc2Cl)CC1)c1ccc(Cl)cc1	-0.4	-28	-0.4%	-2.9	-1	3
Cc1cc(C(=O)NCCCn2ccnc2)sc1-c1ccccc1	0.6	-15	9.1%[38.3 µM]	-1.5	-21	-14
C[C@H](CO)N1C[C@H](C)[C@@H](CN(C)S(=O)(=O)c2cccs2)Oc2ccc(NC(=O)Cc3ccccc3)cc2C1=O	0.5	3	1.1%	3.3	1	2
COc1ccc(C(=O)NCC(=O)N2CCC3(CC2)NCCc2[nH]cnc23)cc1	0.4	-11	-1.5%	2.2	3	-15
COc1ccc(OC)c(NC(=O)C(=O)NNC(=O)C23CC4CC(CC(C4)C2)C3)c1	u	-4	4.0%	-2.5	-2	4
c1ccc(CCNCc2cccs2)nc1	0.5	-21	1.5%	-3.4	1	0
CSc1nc(Cc2ccccc2)nc2ccccc12	2.9	3	3.3%	-5.0	12	12
O=C(O)C1CCCN(S(=O)(=O)c2ccccc2)C1 (configuration not stated)	0.1	-3	-0.7%	1.8	5	-5
CC1CCCC(NC(=O)NC(=O)COC(=O)c2ccc(O)cc2O)C1C (configuration not stated)	-1.4	-8	3.2%	-0.8	1	x
COC(=O)c1c(NC(=O)COC(=O)C2CCC2)sc(C)c1C	0.3	-2	0.2%	-1.4	4	12
N#Cc1ccc(Cn2c(=O)c(C#N)c3n(c2=O)CCC3)cc1	-0.7	4	-0.2%	-0.2	2	0
NC(=O)NCC(=O)N1CCN(S(=O)(=O)c2ccc(Cl)s2)CC1	0.2	-1	-0.5%	-4.8	9	3
CCn1c(=O)c2ccccc2n2c(SCC(=O)NCc3cccs3)nnc12	0.3	-3	5.5%[38.3 µM]	-1.5	1	7
OCCC1CN(C2CCN(c3ccccc3)CC2)CCN1Cc1ccc(F)c(F)c1 (configuration not stated)	-0.5	-18	0.9%	-2.5	-1	7
C=CCN1[C@@H](Cc2ccccc2)COCCS1(=O)=O	-0.7&-0.8	-7	0.3%	0.6	-12	-7
COc1ccc(C(C(=O)NCC2CCCO2)N(C(=O)c2snc(C(N)=O)c2N)c2ccccc2)cc1OC (configuration not stated)	-1.6	22	3.8%	-6.1	-28	-1
Cc1ccc(/C(N)=N/OC(=O)CCC2CCCC2)cc1	1.3	-3	5.7%	4.2	13	2
Cc1ccc(S(=O)(=O)N(C)c2ccc(OCC(=O)Nc3nc(-c4ccccc4)cs3)cc2)cc1	0.5	-6	1.4%	4.8	1	1
Cc1cc(C)c(-c2noc(C(=O)OC(C)(C)C)c2C(=O)OC(C)(C)C)c(C)c1	53*	1	9.8%	0.1	10	7
COc1cc(/C=C/C(=O)OCC(=O)N(CC(C)C)c2c(N)n(Cc3ccccc3)c(=O)[nH]c2=O)ccc1O	2.5	-11	2.0%	0.9	1	4
Cc1ccc(S(=O)(=O)Nc2ccc3nc(C)oc3c2)cc1	2.1	-13	-2.6%	2.1	6	-4

Assay outcomes from PubChem BioAssay.
